PKD1 kinase inh: PKD1 (human) kinase inhibition; PKD1 kinase fluorescence polarization assay; inhibition, %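 (about 10 µM by stock and volumes)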; 0.056% of 200,000 active; AID 797;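 active = inhibition of 50% or more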;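 also: controls were vehicle for no effect and a reference inhibitor for full effect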
Target sequence (Q15139 whole entry, looked up): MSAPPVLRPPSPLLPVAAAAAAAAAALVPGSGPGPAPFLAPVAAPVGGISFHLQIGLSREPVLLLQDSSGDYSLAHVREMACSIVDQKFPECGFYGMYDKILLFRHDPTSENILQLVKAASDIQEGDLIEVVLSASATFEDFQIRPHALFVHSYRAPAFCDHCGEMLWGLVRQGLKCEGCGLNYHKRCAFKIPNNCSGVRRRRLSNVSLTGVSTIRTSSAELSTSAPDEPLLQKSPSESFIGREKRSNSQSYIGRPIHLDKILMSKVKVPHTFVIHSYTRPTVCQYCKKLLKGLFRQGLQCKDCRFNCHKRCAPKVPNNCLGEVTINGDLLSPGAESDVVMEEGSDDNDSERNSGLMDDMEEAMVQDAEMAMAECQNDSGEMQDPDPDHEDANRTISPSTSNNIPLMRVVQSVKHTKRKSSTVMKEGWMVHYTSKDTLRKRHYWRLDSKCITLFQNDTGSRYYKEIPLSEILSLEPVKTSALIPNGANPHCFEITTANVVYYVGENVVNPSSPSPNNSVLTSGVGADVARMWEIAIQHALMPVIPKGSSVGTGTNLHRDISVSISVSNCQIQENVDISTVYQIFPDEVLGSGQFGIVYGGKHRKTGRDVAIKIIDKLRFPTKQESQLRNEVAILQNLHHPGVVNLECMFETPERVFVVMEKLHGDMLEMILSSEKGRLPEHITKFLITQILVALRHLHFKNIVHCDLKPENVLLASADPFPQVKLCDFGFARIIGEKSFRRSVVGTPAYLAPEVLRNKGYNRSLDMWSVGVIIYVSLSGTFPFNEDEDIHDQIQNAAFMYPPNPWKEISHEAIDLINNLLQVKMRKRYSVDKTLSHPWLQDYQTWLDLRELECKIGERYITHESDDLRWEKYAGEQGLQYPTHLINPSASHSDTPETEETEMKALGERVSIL
GALR2 ag: agonists of human galanin receptor 2 (GALR2); 0.48% of 140,000 active; GALR2-expressing cells, agonist activation read-out; O43603; activation, %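 (tested at 5 µM)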;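 active = above mean plus 3 SD of all compounds, about 5% in these data, not always enough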;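 also: 0% = vehicle buffer wells and 100% = reference agonist at full effect; tested in CHO reporter cells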
HSV replic up: increases HSV replication in cells; HSV replication augmentation in cells, fold increase; maximum fold increase; 0.005% of 220,000 active; AID 1956;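 active = peak rise of 1.5-fold or more in the series; tested in PC3 cells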;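 also: first round at 10 µM; read as green reporter fluorescence; hits show the peak of a series up to 25 µM; 1 = signal of infected wells without compound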
RGS16-Gao HTS: modulates binding between human RGS16 and Galphao; bead-based flow cytometry RGS16-Galphao binding, fluorescence; actives lie on both sides; binding response (% of control), % at 10 µM; 0.38% of 220,000 active; AID 1441;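 active = below 25% or above 175%, edge rows of some plates excepted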;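 also: Galphao activated by GDP with aluminum fluoride before binding; 100% = wells without compound and 0% = beads without RGS; some results beyond the cut were filed as inactive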
Insulin prom inh: TRM-6 insulin promoter activity inhibition. inhibition, % at 2 µM. TRM-6 cells (human fetal islet line), insulin promoter-eGFP reporter, imaging; reporter expression induced with tamoxifen. 0.9% of 130,000 active;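 active = inhibition above the mean plus 3 SD, with well images judged a real hit on visual review, cut at about 60% in these data, passing the limit was not always enough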
Insulin prom inh cell count: recorded beside Insulin prom inh, whose call it bears; normalized cell count, %; measured here: cell count, toxicity; reference of the scale not given here;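 cells exposed to compound for 48 h; stained nuclei by imaging scaled within each plate; lower means fewer cells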
HSV replic up primary fold: recorded beside HSV replic up, whose call it bears; fold increase; compound at 10 µM; measured here: primary screen fold increase 10 uM; tested in PC3 cells;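 GFP signal in the first replicate; 1 = infected wells without compound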
Active calls of the source: *; i = inactive; / = no result given.

SMILES | PKD1 kinase inh | GALR2 ag | HSV replic up | HSV replic up primary fold | RGS16-Gao HTS | Insulin prom inh | Insulin prom inh cell count
Cc1cc(C(=O)N2CCN(C/C=C/c3ccccc3)CC2)no1 | -11 | -1.7 | i | 0.68 | 99 | 37 | 65
Cc1cc(Cl)ccc1OCCCC(=O)N1CCCc2ccccc21 | -5 | -2.6 | i | 0.89 | 101 | -13 | 69
COC(=O)c1cccc(NC(=O)Cc2nc(-c3ccccc3)sc2-c2ccc(C)cc2)c1 | -1 | -0.1 | i | 0.96 | 108 | 38 | 111
COC(=O)c1cnn(-c2ccccc2)c1/C=N/NC(=S)Nc1ccccc1 | / | / | i | 1.1 | 101 | / | /
O=C(NCc1ccncc1)c1ccc(Br)cc1 | -8 | -0.3 | i | 0.72 | 105 | / | /
O=c1n(Cc2ccc(Cl)cc2)c2sc3c(c2c2ncnn12)CCCC3 | -6 | -2.4 | i | 0.84 | 103 | -62 | 174
CCCCOc1ccc(Br)cc1/C(C)=N/NC1=NCCN1 | -2 | 0.2 | i | 0.57 | 101 | -356 | 22
O=C(NC(=S)Nc1cccc(C(F)(F)F)c1)c1ccc2nonc2c1 | / | / | i | 1 | 101 | / | /
CCC(C)(C)NC(=O)C1c2ccccc2Oc2ccccc21 | 0 | / | i | 0.98 | 102 | / | /
O=C(Nc1cc(S(=O)(=O)N2CCOCC2)ccc1N1CCOCC1)c1cnccn1 | -1 | -1.8 | / | / | 125 | 0 | 58
COc1ccc(NC(=O)COC(=O)c2c3c(nc4ccccc24)CCCC3)cc1 | -3 | -3.8 | i | 0.8 | 76 | 53 | 154
O=S(=O)(c1ccc2nc(Cc3cccc(C(F)(F)F)c3)[nH]c2c1)N1CCOCC1 | -1 | -1.0 | i | 1 | 98 | -32 | 104
Cc1sc(-n2c(C)cc(C=O)c2C)c(C(=O)O)c1C | -1 | -0.5 | i | 1.1 | 109 | 3 | 83
C/C(=C\C(=O)O)C(=O)Nc1nccs1 | -3 | -3.3 | i | 0.97 | 89 | -27 | 84
O=C(O)c1ccc(N/N=C/c2cn(Cc3ccc(F)cc3)c3ccccc23)cc1 | / | / | i | 1 | 84 | / | /
O=C(Nc1cccc(C(F)(F)F)c1)c1ccco1 | -1 | -0.9 | i | 1.1 | 102 | -81 | 104
NC(Cc1cccc2nsnc12)C(=O)O (stereo not drawn) | -1 | -1.5 | i | 0.96 | 96 | 27 | 108
Cc1cc(C)n(-c2ncnc3sc4c(c23)CC(C)CC4)n1 (stereo not drawn) | -9 | -3.0 | i | 0.88 | 117 | / | /
CC1(C)COC(c2ccc(F)c([N+](=O)[O-])c2)=N1 | 0 | -0.6 | i | 0.91 | 28 | 20 | 86
Cc1ccc2c(CC(=O)NCc3ccco3)coc2c1C | -9 | -2.3 | i | 0.74 | 104 | -126 | 103
Cc1ccc(Nc2nc(CSc3nnc(-c4cccs4)o3)cs2)cc1 | -6 | -0.8 | i | 0.87 | 103 | 43 | 87
COC(=O)\C(C(C)=O)=C(/C=C/C=C/N(C)C)N(C)C | -1 | -0.3 | i | 0.95 | 102 | -107 | 88
O=C(NCCCN1CCCC1=O)c1ccccc1NS(=O)(=O)c1ccc(Br)cc1 | 1 | -1.0 | i | 0.91 | 105 | -1 | 129
CCOc1ccccc1C(=O)N1c2ccccc2Sc2ccccc21 | -2 | -0.8 | i | 1.1 | 90 | -100 | 86
CC(C)=CCN1CCN(Cc2ccc(Oc3ncccn3)cc2)CC1CCO (stereo not drawn) | 1 | / | i | 0.95 | 96 | 4 | 144
Cc1c(Cl)cccc1NC(=O)CNc1ccccc1F | -3 | -0.6 | i | 1 | 100 | / | /
COc1cccc(-c2nn3c(-c4cccc(C)c4)nnc3s2)c1 | -12 | -1.1 | i | 1 | 110 | / | /
COc1ccc(/C=C/C(=O)OCC(=O)NC2CCCC(C)C2C)cc1S(=O)(=O)N1CCOCC1 (stereo not drawn) | 3 | / | i | 1.1 | 96 | 15 | 116
Cn1c(=O)c2c(SCC(=O)NCc3ccco3)nc(CC(C)(C)C)nc2n(C)c1=O | 1 | 0.5 | i | 0.84 | 108 | / | /
CCN(CC)S(=O)(=O)c1cccc(-c2cn3cccnc3n2)c1 | / | / | i | 0.89 | 95 | / | /

3 entries already listed, sorted by length of the SMILES, falling:
SMILES | PKD1 kinase inh | GALR2 ag | HSV replic up | HSV replic up primary fold | RGS16-Gao HTS | Insulin prom inh | Insulin prom inh cell count
Cn1c(=O)c2c(SCC(=O)NCc3ccco3)nc(CC(C)(C)C)nc2n(C)c1=O | 1 | 0.5 | i | 0.84 | 108 | / | /
Cc1ccc(Nc2nc(CSc3nnc(-c4cccs4)o3)cs2)cc1 | -6 | -0.8 | i | 0.87 | 103 | 43 | 87
NC(Cc1cccc2nsnc12)C(=O)O (stereo not drawn) | -1 | -1.5 | i | 0.96 | 96 | 27 | 108

Next compounds
SMILES | PKD1 kinase inh | GALR2 ag | HSV replic up | HSV replic up primary fold | RGS16-Gao HTS | Insulin prom inh | Insulin prom inh cell count
COc1ccccc1NC(=O)Cc1noc(CSc2n[nH]c(N)n2)n1 | -7 | / | i | 1 | 102 | / | /
Cc1cc(-c2ccccc2)c(C#N)c(N)n1 | -4 | -1.3 | i | 0.94 | 101 | 4 | 57
N/C(=N\c1nc2ccccc2o1)NC(=O)c1ccccc1Br | / | / | i | 0.99 | 104 | / | /
CC(=O)c1cccc(NC(=O)Nc2cnn(Cc3ccc(F)cc3)c2)c1 | 0 | -1.3 | i | 1.1 | 105 | / | /
COc1ccc(OC)c(C(c2nnnn2Cc2ccccc2)N2CCN(C)CC2)c1 (stereo not drawn) | 0 | -2.0 | i | 0.77 | 97 | -6 | 96
COc1ccc(CNC(=O)c2cc(-c3ccc(OC)c(OC)c3)on2)cc1 | -6 | 0.3 | i | 0.92 | 101 | 33 | 84
Cc1cccc(NC(=S)N2CCC(N(C)CC3CCCO3)CC2)c1 (stereo not drawn) | -4 | / | i | 0.92 | 113 | -7 | 91
O=C(c1ccco1)N1CCC(c2ccccc2)C1 (stereo not drawn) | -4 | -3.8 | i | 0.9 | 104 | / | /
O=C(O)c1cccc([N+](=O)[O-])c1C(=O)Nc1nc2ccccc2s1 | 8 | / | i | 0.92 | 103 | 60 | 106
CCCC(=O)Nc1ccc2oc(-c3cccnc3)nc2c1 | -9 | -1.3 | i | 0.83 | 104 | 4 | 169
Cn1c(SCC(=O)NCc2ccco2)nnc1-c1cccs1 | -1 | -3.4 | i | 0.95 | 97 | 25 | 81
COC(=O)c1ccc(/C=N/n2cnnc2)cc1 | 17 | -0.3 | i | 0.75 | 101 | -73 | 86
Cc1ccc(OCC(=O)OCCN2C(=O)c3ccccc3C2=O)cc1C | -13 | -1.7 | i | 0.85 | 102 | 29 | 110
CCOc1ccccc1NC(=O)CCn1c(=O)oc2ccccc21 | 0 | -1.4 | i | 0.87 | 104 | 9 | 109
O=C(CCCn1c(=O)[nH]c2ccsc2c1=O)N1CCN(c2ccccn2)CC1 | -10 | -1.4 | i | 0.66 | 96 | -76 | 67
CCOC(=O)N1CCN(C(=O)c2cnn3c(C(F)F)cc(-c4ccc(C)cc4)nc23)CC1 | -17 | -0.6 | i | 1 | 101 | -32 | 150
Cc1cc2c(cc1C)NC(c1c(C)n(C)n(-c3ccccc3)c1=O)C1=C(CC(C)(C)CC1=O)N2 (stereo not drawn) | -8 | -2.6 | i | 1.1 | -99 | 27 | 151
CC1(C)Oc2ccc(NC(=O)c3ccco3)cc2O1 | -5 | 0.4 | i | 0.9 | 102 | -33 | 163
CCc1ccccc1N(CC(=O)NCCSCc1ccco1)S(C)(=O)=O | -3 | -1.0 | i | 0.95 | 139 | 0 | 160
O=C(OCn1nnc2ccccc2c1=O)C1CCCCC1 | -2 | -2.0 | i | 1.1 | 88 | 14 | 109
CCCNC(=O)NC(=O)COC(=O)c1cccc(NS(=O)(=O)c2ccc(F)c(F)c2)c1 | -3 | 0.3 | i | 0.95 | 130 | -21 | 104
COc1cc(=O)n2c(-c3ccccc3)csc2n1 | -10 | -1.9 | i | 1 | 96 | 18 | 131
CCCCNC(=O)C1c2ccccc2Oc2ccccc21 | 8 | / | i | 0.96 | 105 | 13 | 134
CCOC(=O)N1CCC(=NNC(=O)COc2ccc(OC)cc2)CC1 | -4 | -0.6 | i | 0.98 | 107 | / | /
CCN(CC)c1ccc(S(=O)(=O)N(CC)CC)cc1NC(=O)c1cccnc1 | 2 | / | i | 0.98 | 105 | / | /
Cc1cc(-n2cccn2)ccc1CN1CCN(CC(C)C)C(CCO)C1 (stereo not drawn) | / | / | i | 1.1 | 84 | / | /
N#CCCN1CCN(C(=S)c2ccc(-c3cccc(Cl)c3)o2)CC1 | 12 | -3.1 | i | 0.72 | 101 | / | /
Cc1ccc(Oc2ccc(C(=O)NCc3ccncc3)cc2)cc1 | -9 | / | i | 0.9 | 104 | / | /
N#Cc1cccc2cnccc12 | -8 | -3.3 | / | / | 0 | / | /
Cc1ccc(NCc2nnc(SCC(=O)O)n2-c2ccc(C)cc2)cc1 | -5 | / | i | 0.93 | 100 | 23 | 197
CNC(=S)Nc1ccc(Nc2ccccc2)cc1 | 2 | -3.6 | i | 0.95 | 98 | -42 | 82
C=CCn1c(C(C)NC(=O)c2cccs2)n[nH]c1=S (stereo not drawn) | -9 | -1.3 | i | 0.92 | 104 | 15 | 120
Cc1ccc(S(=O)(=O)N(C)C)cc1NC(=O)COC(=O)c1ccc2c(c1)OCCO2 | 5 | / | i | 1 | 91 | / | /
CC1(C)CC(=O)C(=Cc2cn(-c3ccccc3)nc2-c2ccc(Cl)cc2)C(=O)C1 | -10 | -1.1 | i | 0.96 | 78 | 50 | 130
Cc1cccc(Oc2sc(C(=O)c3ccccc3)c(N)c2C#N)c1 | 6 | 1.1 | i | 0.79 | 97 | 36 | 102
Cc1nc2n[nH]c(N)c2c2c1CCCC2 | / | / | i | 1 | 99 | / | /
CC(=O)Oc1ccc(NC(=O)CSc2ccccc2)cc1 | -29 | -1.8 | i | 0.48 | 103 | 67 | 114
O=S1(=O)C=C(Sc2nc3ccccc3s2)c2ccccc21 | -5 | -0.2 | i | 0.57 | 97 | / | /
Cn1c(=O)[nH]c2c(Cl)nccc21 | / | / | i | 1.2 | 101 | / | /
CN(C(=O)c1ccc2c(c1)CCO2)C(C)(C)C | / | / | i | 0.88 | 101 | / | /
Cn1c(-c2ccc([N+](=O)[O-])cc2)nc2ccccc21 | -4 | / | i | 0.99 | 95 | / | /
CC(C)CCn1c(Br)nc2c1c(=O)n(CC(N)=O)c(=O)n2C | 1 | -0.9 | i | 0.85 | 104 | / | /
CCN(CC)C(=O)CSc1nnc(COc2ccccc2)n1CC | -3 | -0.8 | i | 0.86 | 94 | -107 | 87
Cc1c(Cl)c([N+](=O)[O-])nn1CCCC(=O)NC1CCCCC1 | 0 | / | i | 0.85 | 99 | -73 | 121
COc1ccc(N2CCN(C(=O)c3ccc(CSc4ccccc4)cc3)CC2)cc1 | 2 | -0.8 | / | / | 68 | 0 | 42

Two of the compounds above, as tab-separated lines:
smiles	PKD1 kinase inh	GALR2 ag	HSV replic up	HSV replic up primary fold	RGS16-Gao HTS	Insulin prom inh	Insulin prom inh cell count
Cc1c(Cl)c([N+](=O)[O-])nn1CCCC(=O)NC1CCCCC1	0	/	i	0.85	99	-73	121
COc1ccc(N2CCN(C(=O)c3ccc(CSc4ccccc4)cc3)CC2)cc1	2	-0.8	/	/	68	0	42

(list continues)
SMILES | PKD1 kinase inh | GALR2 ag | HSV replic up | HSV replic up primary fold | RGS16-Gao HTS | Insulin prom inh | Insulin prom inh cell count
CN1Cc2ccccc2N(CC(=O)NCc2ccccc2)C1=O | 10 | / | i | 0.92 | 101 | / | /
Cc1ccc2nc(Cn3cc(C(F)(F)F)ccc3=O)cc(=O)n2c1 | 0 | / | i | 0.94 | 106 | 55 | 97
Cn1cnnc1SCNC(=O)C(F)(F)F | -4 | -0.3 | i | 0.9 | 99 | 29 | 102
C=CCN1C(=O)CSc2ccc(C(=O)N3CCC(C)CC3)cc21 | -6 | -0.3 | i | 0.69 | 98 | -23 | 150
Cc1[nH]c2c(Br)cccc2c1[C@H]1[C@@H](CC#N)C1(C)C | -10 | -0.3 | i | 0.88 | 100 | 3 | 57
COc1ccc(C(C(=O)NC2CCCCC2)N(C(=O)Cc2c[nH]c3ccccc23)c2ccccc2C)cc1OC (stereo not drawn) | -5 | -2.7 | i | 0.97 | 29 | 0 | 56
O=C(/C=C/NNC(=O)c1ccc(Cl)cc1)c1ccccc1 | -4 | / | i | 0.98 | 95 | / | /
COc1ccc(S(=O)(=O)Nc2nccs2)cc1OC | 9 | / | i | 0.91 | 109 | -27 | 33
COc1cc(/C=N/n2c(-c3n[nH]c4c3CCC4)n[nH]c2=S)cc(OC)c1O | / | / | i | 0.82 | 96 | / | /
